# High-throughput results from PubChem BioAssay.
# FGF22 binding: shifts melting point of recombinant human FGF22; calls only at 9.99 µM; 340,000 tested, 1.5% active; Q9HCT0; recombinant FGF22 thermal shift, SYPRO orange fluorescence; percent of sucrose octasulfate shift, DMSO zero; AID 651658;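 active means melting point raised past a set limit in the mean and every replicate; three in four hits are not shown here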
# Target sequence (Q9HCT0 whole entry, looked up): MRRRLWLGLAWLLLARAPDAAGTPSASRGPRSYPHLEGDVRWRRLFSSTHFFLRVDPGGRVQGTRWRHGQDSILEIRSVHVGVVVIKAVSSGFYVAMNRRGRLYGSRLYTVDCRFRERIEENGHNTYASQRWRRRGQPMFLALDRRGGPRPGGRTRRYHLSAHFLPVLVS
# Calls only; i = inactive. This is a subset. The share of hits here may be higher or lower than overall.
SMILES,FGF22 binding
CS(=O)(=O)N1[C@H](C#N)[C@@H](c2ccc(C#CC3CC3)cc2)[C@@H]1CO,i
COc1ccc(-c2ccc([C@H]3[C@H](C#N)N(C(=O)c4cccnc4)[C@H]3CO)cc2)cc1,i
CC(C)c1cn(CC[C@H]2CC[C@@H](NC(=O)C3CC3)[C@H](CO)O2)nn1,i
CCCNC(=O)C[C@H]1CC[C@H]2[C@H](COc3ccc(NC(=O)c4ccc5c(c4)OCO5)cc3C(=O)N2C)O1,i
CCCNC(=O)N1CC2(CCN(C(=O)CCC)CC2)c2c(n(C)c3cc(OC)ccc23)[C@@H]1CO,i
C[C@@H]1CCCCO[C@@H](CN(C)C(=O)Nc2ccccc2)[C@@H](C)CN([C@@H](C)CO)C(=O)c2cc(NC(=O)Nc3cccc4ccccc34)ccc2O1,i
O=C(C[C@H]1CC[C@@H]2[C@H](COC[C@H](O)CN2C(=O)Nc2ccccc2)O1)NCCc1ccncc1,i
Cc1ccc(S(=O)(=O)N[C@@H]2CC[C@H](CCNC(=O)c3ccc4c(c3)OCO4)O[C@H]2CO)cc1,i
C/C=C/c1ccc2c(c1)O[C@@H](CN(C)C(=O)c1ccc(F)cc1)[C@@H](C)CN([C@@H](C)CO)S2(=O)=O,i
C[C@@H]1CN([C@@H](C)CO)C(=O)c2cc(NC(=O)NC3CCCCC3)ccc2O[C@H]1CN(C)Cc1ccc(C(=O)Nc2ccccc2N)cc1,i
COc1ccc(CN2C[C@H](O)COC[C@@H]3O[C@@H](CC(=O)N(C)C)CC[C@H]32)cc1,i
N#CCCN1CCC(N)=NC1=NC#N,i
CO[C@@H]1CN(C)C(=O)c2cc(NC(C)=O)ccc2OC[C@H](C)N(C(=O)c2ccc(F)cc2)C[C@@H]1C,i
Cc1ccc(S(=O)(=O)N[C@H]2CC[C@@H](CCNC(=O)C3CC3)O[C@H]2CO)cc1,i
CCC(=O)NC[C@H]1[C@H](c2ccccc2)[C@H](CO)N1C(=O)C1CCC1,i
Cc1[nH]nc2c1C(c1ccc(F)cc1)N(c1ccccc1)C2=O (stereo not drawn),i
CC(C)C#Cc1ccc([C@H]2[C@H]3CN(C(=O)c4ccc(F)cc4)CCCCN3[C@H]2CO)cc1,i
C[C@H]1CN([C@@H](C)CO)S(=O)(=O)c2ccc(-c3ccncc3)cc2O[C@H]1CN(C)Cc1cccnc1,i
CCN(C[C@@H]1N[C@@H](CO)[C@@H]1c1ccc(-c2ccc(F)cc2)cc1)C(=O)COC,i
C[C@@H]1CN([C@H](C)CO)C(=O)c2cc(NC(=O)C3CC3)ccc2O[C@H]1CN(C)C(=O)Nc1ccccc1,i
C[C@@H]1CN([C@@H](C)CO)C(=O)c2cccc(NC(=O)C3CCCCC3)c2O[C@H]1CN(C)Cc1ccc(C(=O)Nc2ccccc2N)cc1,i
O=C(C[C@H]1C=C[C@@H](NC(=O)Nc2ccc(F)cc2)[C@@H](CO)O1)NCc1cccc(F)c1,i
COc1ccc(S(=O)(=O)N(C)C[C@@H]2Oc3c(NC(=O)C4CC4)cccc3C(=O)N([C@@H](C)CO)C[C@H]2C)cc1,i
C[C@H]1CN([C@@H](C)CO)C(=O)Cc2cc(NC(=O)c3ccncc3)ccc2O[C@@H]1CN(C)S(=O)(=O)c1ccc(F)cc1,i
C[C@@H]1CN([C@@H](C)CO)C(=O)c2cc(NC(=O)Nc3ccc4c(c3)OCO4)ccc2O[C@@H](C)CCCCO[C@H]1CN(C)C(=O)C1CCCCC1,i
O=C(C[C@H]1CC[C@H]2[C@@H](COC[C@@H](O)CN2C(=O)c2ccncc2)O1)NCc1cccc(F)c1,i
C[C@@H]1CCCCO[C@@H](CN(C)C(=O)Nc2ccccc2)[C@H](C)CN([C@@H](C)CO)C(=O)c2cc(NC(=O)Nc3ccc4c(c3)OCO4)ccc2O1,i
CNC[C@@H]1Oc2ccc(NC(=O)Nc3ccc4c(c3)OCO4)cc2C(=O)N([C@H](C)CO)C[C@@H]1C,i
CC(C)NC(=O)N(C)C[C@@H]1Oc2ccc(NS(=O)(=O)c3cccs3)cc2CC(=O)N([C@@H](C)CO)C[C@H]1C,i
COc1ccc(NC(=O)N2CCCCN3[C@@H](CO)[C@H](c4ccc(-c5ccccc5F)cc4)[C@@H]3C2)cc1,i
O=C(C[C@H]1CC[C@H](NC(=O)Nc2cccc(F)c2)[C@H](CO)O1)NCC1CCCCC1,i
C[C@H]1CN([C@@H](C)CO)C(=O)c2ccccc2-c2ccccc2CO[C@@H]1CN(C)Cc1ccc(Cl)c(Cl)c1,i
O=C(C[C@H]1C=C[C@@H](NC(=O)C2CC2)[C@H](CO)O1)NC1CCC1,i
COc1ccc2c3c(n(C)c2c1)[C@@H](CO)N(C(=O)C1CCOCC1)CC31CCN(C(=O)Nc2cccc(F)c2)CC1,i
C[C@@H]1CN([C@H](C)CO)C(=O)c2cc(NS(=O)(=O)c3ccc(Cl)cc3)ccc2O[C@H]1CN(C)C,i
O=C(C[C@@H]1C=C[C@@H](NC(=O)c2ccc(F)cc2)[C@@H](CO)O1)NCCc1ccccc1,i
O=C(N[C@@H]1CC[C@@H](CCn2cc(-c3ccccn3)nn2)O[C@H]1CO)c1cccnc1,i
COc1ccc(CN(C)C[C@@H]2OCCCC[C@H](C)Oc3ccc(NC(=O)Nc4ccc5c(c4)OCO5)cc3C(=O)N([C@H](C)CO)C[C@H]2C)cc1,i
COc1ccc(-c2cnc3c(c2)C(=O)N([C@H](C)CO)C[C@H](C)[C@H](CN(C)S(=O)(=O)c2ccc(F)cc2)O3)cc1,i
CC(C)CC#Cc1ccc2c(c1)O[C@@H](CN(C)CC1CCCC1)[C@H](C)CN([C@@H](C)CO)S2(=O)=O,i
O=C(C[C@@H]1C[C@H]2c3cc(NS(=O)(=O)c4ccc(F)cc4)ccc3O[C@H]2[C@H](CO)O1)NCc1ccc(Cl)cc1,i
CCNC(=O)[C@H]1[C@H](CO)[C@H]2Cn3c(cccc3=O)[C@H]2N1Cc1ccccc1Cl,i
O=C(N[C@@H]1CC[C@@H](CCn2cc(-c3ccccn3)nn2)O[C@@H]1CO)c1cccnc1,i
CO[C@H]1CN(C)C(=O)c2ccc(NC(C)=O)cc2OC[C@@H](C)N(Cc2ccc(F)cc2)C[C@H]1C,i
CC(C)NC(=O)Nc1cccc2c1O[C@H](CN(C)C(=O)Nc1ccc(C(F)(F)F)cc1)[C@@H](C)CN([C@@H](C)CO)C2=O,i
CC(C)NC[C@@H]1[C@H](c2ccc(C3=CCCCC3)cc2)[C@H](CO)N1S(C)(=O)=O,i
O=C(NCC(F)(F)F)[C@H]1[C@H](CO)[C@H]2Cn3c(cccc3=O)[C@H]2N1C(=O)C1CCC1,i
COc1cccc(C#Cc2ccc([C@@H]3[C@H](C#N)N(C(=O)C4CC4)[C@H]3CO)cc2)c1,i

# Not a retest: entries from further up.
SMILES,FGF22 binding
C[C@@H]1CN([C@H](C)CO)C(=O)c2cc(NS(=O)(=O)c3ccc(Cl)cc3)ccc2O[C@H]1CN(C)C,i
O=C(C[C@@H]1C=C[C@@H](NC(=O)c2ccc(F)cc2)[C@@H](CO)O1)NCCc1ccccc1,i
O=C(N[C@@H]1CC[C@@H](CCn2cc(-c3ccccn3)nn2)O[C@H]1CO)c1cccnc1,i
COc1ccc(CN(C)C[C@@H]2OCCCC[C@H](C)Oc3ccc(NC(=O)Nc4ccc5c(c4)OCO5)cc3C(=O)N([C@H](C)CO)C[C@H]2C)cc1,i
COc1ccc(-c2cnc3c(c2)C(=O)N([C@H](C)CO)C[C@H](C)[C@H](CN(C)S(=O)(=O)c2ccc(F)cc2)O3)cc1,i
CC(C)CC#Cc1ccc2c(c1)O[C@@H](CN(C)CC1CCCC1)[C@H](C)CN([C@@H](C)CO)S2(=O)=O,i
O=C(C[C@@H]1C[C@H]2c3cc(NS(=O)(=O)c4ccc(F)cc4)ccc3O[C@H]2[C@H](CO)O1)NCc1ccc(Cl)cc1,i
CCNC(=O)[C@H]1[C@H](CO)[C@H]2Cn3c(cccc3=O)[C@H]2N1Cc1ccccc1Cl,i
O=C(N[C@@H]1CC[C@@H](CCn2cc(-c3ccccn3)nn2)O[C@@H]1CO)c1cccnc1,i
CO[C@H]1CN(C)C(=O)c2ccc(NC(C)=O)cc2OC[C@@H](C)N(Cc2ccc(F)cc2)C[C@H]1C,i
CC(C)NC(=O)Nc1cccc2c1O[C@H](CN(C)C(=O)Nc1ccc(C(F)(F)F)cc1)[C@@H](C)CN([C@@H](C)CO)C2=O,i
CC(C)NC[C@@H]1[C@H](c2ccc(C3=CCCCC3)cc2)[C@H](CO)N1S(C)(=O)=O,i
O=C(NCC(F)(F)F)[C@H]1[C@H](CO)[C@H]2Cn3c(cccc3=O)[C@H]2N1C(=O)C1CCC1,i

# Further entries follow.
SMILES,FGF22 binding
COc1ccc(CN(C)C[C@H]2Oc3ccc(NS(=O)(=O)c4cccs4)cc3CC(=O)N([C@@H](C)CO)C[C@@H]2C)cc1,i
Cc1ccc(-c2cnc3c(c2)C(=O)N([C@H](C)CO)C[C@H](C)[C@H](CN(C)C(=O)c2ccccc2)O3)cc1,i
CO[C@@H](CN(C)S(=O)(=O)c1cn(C)cn1)[C@@H](C)CN(C(=O)Nc1ccc(C(F)(F)F)cc1)[C@@H](C)CO,i
C[C@H]1CN([C@@H](C)CO)C(=O)Cc2cc(NC(=O)Nc3ccc(C(F)(F)F)cc3)ccc2O[C@@H]1CN(C)S(=O)(=O)c1cccs1,i
CC=Cc1ccc2n(c1=O)C[C@H]1[C@H](CO)[C@@H](C(=O)N[C@H](C)c3ccccc3)[C@@H]2N1Cc1ccncc1 (mixture of isomers),i
COc1cccc(C(=O)N2C[C@H]3[C@@H](c4ccccc42)[C@H](CO)N3Cc2ccccc2F)c1,i
C[C@@H]1CCCCO[C@H](CN(C)Cc2ccc(Cl)c(Cl)c2)[C@H](C)CN([C@@H](C)CO)C(=O)c2cc(NC(=O)NC3CCCCC3)ccc2O1,i
Cc1noc(C)c1NC(=O)N[C@H]1CC[C@H](CC(=O)Nc2ccccc2)O[C@@H]1CO,i
COCC(=O)N(C)C[C@H]1Oc2ncc(C#CC(C)(C)O)cc2C(=O)N([C@H](C)CO)C[C@@H]1C,i
CC=Cc1ccc2n(c1=O)C[C@H]1[C@H](CO)[C@@H](C(=O)NCc3ccccc3)[C@@H]2N1S(C)(=O)=O (mixture of isomers),i
CC(=O)N(C)C[C@H]1Oc2ncc(-c3cccnc3)cc2C(=O)N([C@@H](C)CO)C[C@H]1C,i
COCC(=O)N[C@@H]1CC[C@H](CC(=O)N2CCCCC2)O[C@@H]1CO,i
C[C@H](CO)N1C[C@H](C)[C@H](CN(C)Cc2ccncc2)Oc2ccc(NC(=O)c3ccncc3)cc2C1=O,i
COc1ccc(CN(C)C[C@H]2OCCCC[C@@H](C)Oc3ccc(NS(=O)(=O)c4ccc(OC)cc4)cc3C(=O)N([C@H](C)CO)C[C@@H]2C)cc1,i
O=C(NCc1ccccc1)[C@@]1(Cc2ccccc2)N=C(c2ccc(OCCCO)cc2)O[C@H]1c1ccccc1,i
O=C(Nc1ccc(F)cc1)Nc1ccc2c(c1)[C@H]1C[C@@H](CC(=O)N3CCCCC3)O[C@@H](CO)[C@H]1O2,i
C[C@@H]1CN([C@H](C)CO)C(=O)c2cc(NS(C)(=O)=O)ccc2O[C@@H]1CN(C)C(=O)Nc1ccc2c(c1)OCO2,i
COc1ccc(CN2CC3(CN(C(=O)C4CCC4)C3)c3c(n(C)c4cc(OC)ccc34)[C@@H]2CO)cc1,i
CN1CCN(C(=O)C[C@H]2C[C@H]3c4cc(NC(=O)NC5CCCCC5)ccc4O[C@H]3[C@H](CO)O2)CC1,i
O=C(Nc1ccccc1F)N1C[C@@H]2[C@H](c3ccccc31)[C@H](CO)N2C(=O)c1ccccn1,i
COCCNC(=O)C[C@H]1CC[C@@H]2[C@H](COc3ccc(NC(=O)C4CCOCC4)cc3C(=O)N2C)O1,i
Cc1ccccc1S(=O)(=O)N1C[C@H](O)COC[C@@H]2O[C@@H](CC(=O)NCCc3ccccc3)CC[C@H]21,i
C[C@H]1CN([C@@H](C)CO)C(=O)c2cccc(NS(=O)(=O)c3cn(C)cn3)c2O[C@H]1CN(C)Cc1ccc2c(c1)OCO2,i
O=C(C[C@H]1C[C@H]2c3cc(NC(=O)Cc4ccncc4)ccc3O[C@H]2[C@@H](CO)O1)NCCc1ccccc1,i
C[C@@H]1CN([C@H](C)CO)S(=O)(=O)c2ccc(C#CC3CC3)cc2O[C@@H]1CN(C)C(=O)C1CC1,i
COCC(=O)N1[C@@H]2CN(C(=O)c3ccccc3)c3ccccc3[C@@H]2[C@@H]1CO,i
C[C@H](CO)N1C[C@H](C)[C@@H](CN(C)Cc2ccncc2)OCc2cn(nn2)CCCC1=O,i
C[C@H](CO)N1C[C@H](C)[C@@H](CN(C)Cc2ccc3c(c2)OCO3)OCc2ccccc2-c2ccccc2C1=O,i
COC(=O)C[C@@H]1CC[C@H]2[C@@H](COC[C@H](O)CN2S(=O)(=O)c2ccccc2C)O1,i
CCCN1C[C@H](C)[C@H](OC)CN(C)C(=O)c2ccc(NS(=O)(=O)c3cn(C)cn3)cc2OC[C@@H]1C,i
N#C[C@H]1[C@H](c2ccc(C3=CCCC3)cc2)[C@H](CO)N1C(=O)NC1CCCC1,i
Cc1ccccc1C(=O)N1CCC[C@@H]1C(=O)N1CCC[C@H]1C(=O)NCc1ccccc1,i
C[C@@H]1CN([C@@H](C)CO)C(=O)c2cccc(NC(=O)NC3CCCCC3)c2O[C@@H]1CN(C)Cc1ccc(Cl)c(Cl)c1,i
Cc1ccc(S(=O)(=O)Nc2ccc3c(c2)CC(=O)N([C@@H](C)CO)C[C@@H](C)[C@H](CN(C)Cc2ccccc2)O3)cc1,i
CO[C@H]1CN(C)C(=O)c2cc(NC(=O)C3CC3)ccc2OC[C@H](C)N(Cc2cc(F)ccc2F)C[C@@H]1C,i
CO[C@H]1CN(C)C(=O)c2cc(NC(=O)C3CCCCC3)ccc2OC[C@H](C)N(Cc2cccnc2)C[C@@H]1C,i
COc1ccc(CN(C)C[C@@H]2Oc3ccc(NC(=O)NC(C)C)cc3CC(=O)N([C@H](C)CO)C[C@H]2C)cc1,i
C[C@H]1CN([C@@H](C)CO)C(=O)Cc2cc(NC(=O)CCC(F)(F)F)ccc2O[C@H]1CN(C)Cc1ccc(C(=O)O)cc1,i
C[C@H]1CN([C@@H](C)CO)C(=O)c2cc(Br)cnc2O[C@H]1CN(C)C(=O)C1CCCCC1,i
